# Insulin prom inh: TRM-6 insulin promoter activity inhibition; 0.9% of 130,000 active; TRM-6 cells (human fetal islet line), insulin promoter-eGFP reporter, imaging; reporter expression induced with tamoxifen; inhibition, % at 2 µM;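 active = inhibition above the mean plus 3 SD, with well images judged a real hit on visual review, cut at about 60% in these data, passing the limit was not always enough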
# GALR2 ag: GALR2 (human) receptor agonism. O43603. GALR2-expressing cells, agonist activation read-out. activation, %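 (tested at 5 µM)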. 0.48% of 140,000 active;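 active = above mean plus 3 SD of all compounds, about 5% in these data, not always enough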;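 note: 0% = vehicle buffer wells and 100% = reference agonist at full effect; tested in CHO reporter cells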
# PKD1 inh: inhibitors of human PKD1 kinase; Q15139; PKD1 kinase fluorescence polarization assay; inhibition, %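 (about 10 µM by stock and volumes)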; 0.056% of 200,000 active; AID 797;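 active = inhibition of 50% or more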;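 note: controls were vehicle for no effect and a reference inhibitor for full effect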
# Target sequence (Q15139 whole entry, looked up): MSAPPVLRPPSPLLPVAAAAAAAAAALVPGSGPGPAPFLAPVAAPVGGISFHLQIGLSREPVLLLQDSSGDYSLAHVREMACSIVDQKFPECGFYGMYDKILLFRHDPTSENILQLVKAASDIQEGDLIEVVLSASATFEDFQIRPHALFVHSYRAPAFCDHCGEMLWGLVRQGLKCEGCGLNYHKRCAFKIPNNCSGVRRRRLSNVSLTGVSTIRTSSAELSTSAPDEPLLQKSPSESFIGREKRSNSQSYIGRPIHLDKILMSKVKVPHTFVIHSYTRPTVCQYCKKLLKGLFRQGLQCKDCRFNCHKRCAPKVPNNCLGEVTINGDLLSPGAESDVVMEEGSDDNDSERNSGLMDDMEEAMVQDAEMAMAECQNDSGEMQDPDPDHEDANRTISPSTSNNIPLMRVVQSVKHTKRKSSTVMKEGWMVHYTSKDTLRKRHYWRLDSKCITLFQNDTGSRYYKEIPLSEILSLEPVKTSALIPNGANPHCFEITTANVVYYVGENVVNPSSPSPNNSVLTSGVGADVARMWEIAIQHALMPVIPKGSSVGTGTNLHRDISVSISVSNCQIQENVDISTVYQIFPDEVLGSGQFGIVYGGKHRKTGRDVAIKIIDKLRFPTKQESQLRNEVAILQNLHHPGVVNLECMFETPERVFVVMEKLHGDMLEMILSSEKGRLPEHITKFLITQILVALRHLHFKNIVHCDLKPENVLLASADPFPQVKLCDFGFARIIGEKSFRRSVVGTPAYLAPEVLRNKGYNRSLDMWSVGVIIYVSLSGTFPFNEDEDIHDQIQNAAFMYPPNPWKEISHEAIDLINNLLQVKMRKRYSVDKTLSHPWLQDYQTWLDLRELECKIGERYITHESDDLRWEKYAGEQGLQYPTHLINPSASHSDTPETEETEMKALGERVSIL
# HSV augment: increases HSV replication in cells; HSV replication augmentation in cells, fold increase; maximum fold increase; 0.005% of 220,000 active; AID 1956;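 active = peak rise of 1.5-fold or more in the series; tested in PC3 cells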;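 note: first round at 10 µM; read as green reporter fluorescence; hits show the peak of a series up to 25 µM; 1 = signal of infected wells without compound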
# RGS16-Gao HTS: modulates binding between human RGS16 and Galphao. O15492+P09471. bead-based flow cytometry RGS16-Galphao binding, fluorescence; actives lie on both sides. binding response (% of control), % at 10 µM. 0.38% of 220,000 active. AID 1441;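 active = below 25% or above 175%, edge rows of some plates excepted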;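 note: Galphao activated by GDP with aluminum fluoride before binding; 100% = wells without compound and 0% = beads without RGS; some results beyond the cut were filed as inactive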
# Insulin prom inh cell count: second read-out of Insulin prom inh, no call of its own (marks repeat the call); normalized cell count, %; measured here: cell count, toxicity; reference of the scale not given here;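 cells exposed to compound for 48 h; stained nuclei by imaging scaled within each plate; lower means fewer cells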
# HSV augment primary fold: recorded beside HSV augment, whose call it bears; fold increase; compound at 10 µM; measured here: primary screen fold increase 10 uM; tested in PC3 cells;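 GFP signal in the first replicate; 1 = infected wells without compound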
# Starred values were filed as active, the others as inactive; i = inactive; · = no result given; [ ] = another dose, or the depositor's remark. No enrichment for hits, and some 1.3% of all compounds hit somewhere here.
SMILES,Insulin prom inh,Insulin prom inh cell count,GALR2 ag,PKD1 inh,HSV augment,HSV augment primary fold,RGS16-Gao HTS
O=C(Nc1ccc(OCc2ccccc2)cc1)Nc1ccccc1C(=O)NCCCN1CCOCC1,·,·,·,·,i,0.86,100
CCN(CC)C(=O)Cn1cnc2sc(C(=O)N3CCN(Cc4ccc5c(c4)OCO5)CC3)c(C)c2c1=O,-40,143,·,5,i,0.96,98
CC(C)NC(=O)c1ccc(C2SCC(=O)N2Cc2ccccc2)cc1 (configuration not stated),66,104,-1.2,2,i,0.86,346*[activator]
O=C1NC(Cc2ccccc2)C(=O)N1CC(=O)N1CCCc2ccccc21 (configuration not stated),·,·,·,-5,i,1,103
Cc1cccc(NC(=O)CCN2CCN(C/C=C/c3ccccc3)CC2)c1,6,151,0.0,2,i,1,110
CCOC(=O)CSc1nnc(-c2ccc(Cl)cc2Cl)o1,-47,180,-0.9,1,i,0.77,104
O=C(NCc1cccs1)c1cnc2sccn2c1=O,·,·,-0.9,-12,i,1.1,99
CCOc1ccc(NC(=O)CN(c2ccc([N+](=O)[O-])cc2)S(=O)(=O)c2ccccc2)cc1,0,112,-0.4,-13,i,0.68,104
COc1ccc(CCNC(=O)CSc2c[nH]c3ccccc23)cc1OC,-27,158,·,-2,i,0.96,112
CC(=O)c1c(C)[nH]c(C(=O)CSc2ncnc3sc(-c4ccccc4)cc23)c1C,-14,118,-1.3,-7,i,1.1,134
O=C(c1sc2ccccc2c1Cl)N1CCN(c2ccc(F)cc2)CC1,·,·,-1.5,11,i,0.91,97
CCCc1nc2oc3ccccc3c(=O)c2c(=O)n1-c1ccccc1,·,·,·,·,i,1.3,99
CCOC(=O)CNC(=O)CSc1nnc(Cn2cnc3ccccc32)n1C,-17,80,-1.9,-10,i,0.98,93
COc1ccc(C(=O)NC(C)c2nnc(SCC(=O)Nc3nc4ccccc4s3)n2C)cc1 (configuration not stated),38,113,0.2,-5,i,0.97,88
CC(C)C(c1nnnn1Cc1ccc(F)cc1)N1CCSCC1 (configuration not stated),16,110,-1.0,-8,i,1,100

# Some of the entries above, reformatted:
# Each structure is followed by: Insulin prom inh | Insulin prom inh cell count | GALR2 ag | PKD1 inh | HSV augment | HSV augment primary fold | RGS16-Gao HTS
CC(=O)c1c(C)[nH]c(C(=O)CSc2ncnc3sc(-c4ccccc4)cc23)c1C
    -14 | 118 | -1.3 | -7 | i | 1.1 | 134
CCN(CC)C(=O)Cn1cnc2sc(C(=O)N3CCN(Cc4ccc5c(c4)OCO5)CC3)c(C)c2c1=O
    -40 | 143 | · | 5 | i | 0.96 | 98

# Rewritten tab-delimited: 2 of the compounds above.
mol	Insulin prom inh	Insulin prom inh cell count	GALR2 ag	PKD1 inh	HSV augment	HSV augment primary fold	RGS16-Gao HTS
COc1ccc(C(=O)NC(C)c2nnc(SCC(=O)Nc3nc4ccccc4s3)n2C)cc1 (configuration not stated)	38	113	0.2	-5	i	0.97	88
CC(C)C(c1nnnn1Cc1ccc(F)cc1)N1CCSCC1 (configuration not stated)	16	110	-1.0	-8	i	1	100

# Later entries:
SMILES,Insulin prom inh,Insulin prom inh cell count,GALR2 ag,PKD1 inh,HSV augment,HSV augment primary fold,RGS16-Gao HTS
COc1ccc(NC(=O)CSc2nc(N)c(C#N)cc2C#N)cc1,-27,43,0.1,-1,i,0.81,102
CCCSc1nc(-c2ccccc2)cc(C(F)(F)F)c1C#N,3,113,-3.4,1,i,0.82,107
CCCN(CC1CC1)C(=S)NC(=O)c1ccc(S(=O)(=O)N2CCOCC2)cc1,·,·,·,-7,i,0.97,94
CCOP(=O)(OCC)C(NC(=O)Nc1ccccc1)c1ccccc1 (configuration not stated),·,·,-1.8,-3,i,1,124
CCNC(=S)/N=C(/Nc1ccccc1)Nc1nc(C)cc(C)n1,·,·,·,·,i,0.86,95
O=C(c1ccc2c(=O)n(CC3CCCO3)c(=S)[nH]c2c1)N1CCN(c2ccccc2)CC1 (configuration not stated),-61,120,-1.7,3,i,1.1,101
Cc1ccc(-c2nnc(-c3ccncc3)n2-c2ccc(C)cc2)cc1,-15,188,-1.9,5,i,0.88,101
COc1ccc(N2CC(C(=O)Nc3ccc(N4CCOCC4)cc3)CC2=O)cc1 (configuration not stated),19,5,-1.6,-4,i,0.91,45
COc1cccc(-n2nnc3c(=O)n(CC(=O)N4CCCCC4)cnc32)c1,·,·,-0.3,-14,i,0.9,101
COc1cc(OC)c(C(=O)Nc2ncn[nH]2)cc1OC,-181,122,-1.9,-1,i,0.9,·
Cc1sc(NC(=O)C2C3CCC(C3)C2C(=O)O)c(C(N)=O)c1-c1ccc(C(C)(C)C)cc1 (configuration not stated),-21,69,-1.0,-6,i,1,100
CCN1CCCC(NC(=O)c2scc3c2CCCC3)C1 (configuration not stated),·,·,-3.0,2,i,0.89,103
Cc1ccccc1C(=O)N/C(=C/c1ccc(-c2cccnc2Cl)o1)C(=O)NCCCN1CCN(C)CC1,-68,101,-0.9,4,i,0.73,102
CCC(=O)Nc1nc(C)nc(C)c1C(C)=O,-6,126,-0.6,-6,i,0.97,104
C#CCNC(=O)C1=C[C@@H](C2CCCCC2)[C@H](CCCO)[C@@H](OCC)O1,·,·,·,10,i,0.64,102
CC1(C)CC(=O)C(C2c3ccccc3Oc3ccccc32)C(=O)C1,·,·,-0.7,-3,i,0.84,109
COC(=O)C1=C(C)n2cnnc2NC1c1ccc(Cl)cc1 (configuration not stated),·,·,-1.4,3,i,0.74,102
CCOc1ccccc1NC(=O)CCC(=O)Nc1ccccc1OCC,4,134,-2.4,1,i,1,102
CCN(CC)S(=O)(=O)c1ccc(OC)c(NC(=S)Nc2cccc(C)c2C)c1,14,122,-1.1,-4,i,0.83,74
CC(NC(=O)c1ccc(N2CCCC2=O)cc1)c1ccccc1 (configuration not stated),23,136,-1.1,-11,i,0.85,101
CC(C)c1ccc(NC(=O)COc2nnc(-c3cccs3)c(-c3cccs3)n2)cc1,·,·,-2.1,0,i,0.94,97
O=CN1CCC(=O)N(Cc2ccccc2)c2ccccc21,·,·,-2.4,-8,i,0.74,100
CCCS(=O)(=O)N1CCN(Cc2ccc3c(c2)c2ccccc2n3CC)CC1,24,143,-1.3,-3,i,0.93,105
C=CCN1c2ccccc2[C@]23C[C@@H](C(=O)OC)N=C2NC(C(=O)OC)=C(C(=O)OC)[C@H]13,·,·,·,·,i,0.79,104
CCc1nc2c(C#N)c(-c3ccc(Cl)cc3)ccn2n1,-29,78,-1.3,-3,i,0.95,104
COc1cccc(C(=O)N2CCn3c2nc2ccccc23)c1,-72,77,·,-3,i,0.91,101
CCCC(C)(C)NC(=O)CCCCC(=O)NC(C)(C)CCC,·,·,-0.1,1,i,1.1,100
Cc1cccc(N(Cc2cc3ccccc3[nH]c2=O)C(=O)c2cccs2)c1,·,·,·,·,i,1,86
O=C(NC(=S)Nc1ccc(Cc2ccncc2)cc1)c1ccccc1,13,170,2.2,4,i,0.85,110
CC(C)OC(=O)c1cc(NC(=S)Nc2ccc([N+](=O)[O-])cc2)cc(C(=O)OC(C)C)c1,·,·,-1.6,-7,i,0.98,44
Cn1c(=O)cc(OCC(=O)N2CCN(c3cccc(C(F)(F)F)c3)CC2)c2ccccc21,17,93,-4.0,-4,i,1,88
Cc1nn(-c2ccccc2)c(N)c1C1(O)C(=O)N(C)c2ccccc21 (configuration not stated),29,182,-0.9,-5,i,0.97,90
CN=C(Nc1ccccc1)SC1CC(=O)N(c2cccc(OC)c2)C1=O (configuration not stated),·,·,·,-6,i,0.86,101
CCOC(=O)C1=C(C)NC(C)=C(C(=O)OCC)C1C(=O)OCC(=O)c1ccc2c(c1)OCCO2,·,·,-0.5,6,i,1,69
COc1ccc(C(=O)C2CCCN(C(=O)c3cc4nc(C)cc(C)n4n3)C2)cc1F (configuration not stated),-292,87,·,3,i,1.1,102
Cc1csc2nc(CCNS(=O)(=O)c3ccc4c(c3)OCCO4)cn12,·,·,-3.0,-11,i,1,102
O=C(NCCn1ccc2ccccc21)c1ccc2c(c1)OCO2,-40,46,-1.2,1,i,0.96,102
CS(=O)(=O)c1ccccc1C(=O)N1CCN(Cc2ccccc2)CC1,20,58,·,-3,i,1,183
COc1ccc2c(c1)c1ncn(CCCN3CCOCC3)c(=O)c1n2C,-400,107,-0.9,-4,i,0.82,110
COc1cc(OC)cc(C(=O)OCn2nnc3ccccc3c2=O)c1,-29,116,-0.9,-10,i,0.71,99
CCOc1ccc(N2CC(C(=O)OCC(=O)NCc3ccccc3)CC2=O)cc1 (configuration not stated),-37,112,-3.1,8,i,0.87,101
Cc1cccc(OCc2n[nH]c(=S)o2)c1C,58,111,·,-2,i,0.93,100
CC(=O)c1ccc(-n2nncc2C)cc1,·,·,1.3,-13,i,0.98,97
O=C(CCCn1c(SCC(=O)c2ccc(O)c(O)c2)nc2ccccc2c1=O)NCC1CCCO1 (configuration not stated),-56,73,-0.4,-1,i,0.89,88
Cc1nc(NC(=O)c2cccnc2)ccc1Br,-9,218,-0.1,-2,i,0.92,103

# 3 entries already listed, arranged by length of the SMILES, largest number first.
SMILES,Insulin prom inh,Insulin prom inh cell count,GALR2 ag,PKD1 inh,HSV augment,HSV augment primary fold,RGS16-Gao HTS
O=C(Nc1ccc(OCc2ccccc2)cc1)Nc1ccccc1C(=O)NCCCN1CCOCC1,·,·,·,·,i,0.86,100
CCCS(=O)(=O)N1CCN(Cc2ccc3c(c2)c2ccccc2n3CC)CC1,24,143,-1.3,-3,i,0.93,105
COc1ccc2c(c1)c1ncn(CCCN3CCOCC3)c(=O)c1n2C,-400,107,-0.9,-4,i,0.82,110

# Remaining list, next part.
SMILES,Insulin prom inh,Insulin prom inh cell count,GALR2 ag,PKD1 inh,HSV augment,HSV augment primary fold,RGS16-Gao HTS
O=c1[nH]c(N/N=C\c2ccc(F)cc2)nc2ccccc12,·,·,·,-1,i,0.91,101
Cc1ccc2cc(CCNC(=O)c3c(-c4ccccc4Cl)noc3C)c(=O)[nH]c2c1,·,·,2.5,0,i,0.94,99
Cc1nc2c(S(=O)(=O)c3ccccc3)cnn2c(C)c1C,·,·,·,2,i,0.96,90
Cc1ccc(C(=O)CN(C(=O)c2ccc(Cl)cc2)N2C(=O)c3ccccc3C2=O)cc1,·,·,-1.6,-5,i,1.1,92
CNC(=O)c1ccccc1S(=O)c1ccccc1COC(C)=O (configuration not stated),·,·,·,·,i,1.1,94
CC(=O)Nc1ccc(OS(=O)(=O)c2cc(Cl)ccc2C)cc1,-39,116,·,-3,i,0.85,99
CCS(=O)(=O)NCCc1cc2c(OC)ccc(OC)c2[nH]c1=O,39,38,0.8,-3,i,0.93,105
O=C(COc1ncnc2ccccc12)Nc1ccccc1[N+](=O)[O-],·,·,·,6,i,0.98,100
COc1ccc(S(=O)(=O)Nc2ccccc2C)cc1C(=O)N1CCOCC1,·,·,·,-4,i,1,100
COc1ccc(C2CC(=O)Oc3c(C(CCN4CCN(c5ccccc5)CC4)c4ccc(N(C)C)cc4)c(OC)cc(OC)c32)cc1 (configuration not stated),·,·,·,·,i,0.83,98
O=C(CCCN1C(=O)c2ccccc2C1=O)N1CCc2ccccc2C1,-43,68,-0.8,2,i,0.97,105
C/C(=N\NC(=S)NC1CCCCC1)c1c(F)cccc1F,23,132,·,8,i,1,102
Cc1ccccc1Oc1ncccc1C(=O)/C(C#N)=C/N(C)C,36,76,-1.3,-1,i,1.4,101
CCCCN1C(=O)c2ccc(C(=O)Nc3c(N)n(CCCC)c(=O)n(C)c3=O)cc2C1=O,-39,84,-1.2,-7,i,1,101
O=C(CCc1nc(-c2ccccc2F)no1)NC1CCCCCC1,-12,85,-2.1,-3,i,0.9,115
COc1ccc(NC(=S)NCc2ccco2)c(OC)c1,55,109,-0.6,-4,i,0.9,97
CC(C)Cn1c(SCC(=O)Nc2ncccn2)nc2ccccc21,-18,108,·,-3,i,0.83,102
CNS(=O)(=O)c1ccc(N=Cc2c(C)[nH]n(-c3ccc(C)cc3C)c2=O)cc1,-19,115,·,3,i,1,98
CCCn1c(SCc2cc(=O)oc3ccc4ccccc4c23)n[nH]c1=O,53,101,-1.4,-12,i,0.87,96
O=C(NC1CCCc2ccccc21)c1cccc(S(=O)(=O)N2CCN(c3ccccc3)CC2)c1 (configuration not stated),27,144,-2.9,-5,i,0.92,105
N#CC1C(C#N)N2CCCN2C1c1ccc(Cl)cc1 (configuration not stated),28,145,-2.2,-2,i,0.74,·
COc1ccc(NC(=O)/C(C#N)=C\c2cc(OC)c(OCc3ccc(C(=O)O)cc3)cc2Br)cc1,13,124,·,0,i,0.59,106
O=C(Nc1nc2ccccc2s1)c1cc2c(s1)-c1ccccc1OC2,·,·,3.0,2,i,0.96,99
CCn1c(SCC(=O)Nc2nc3c(s2)CCCC3)nnc1-c1ccccc1,-64,101,-2.2,-6,i,0.86,183
Cc1[nH]c2ccc(C(C)C)cc2c1CC(=O)O,·,·,·,·,i,0.92,112
O=C(Cn1cnc([N+](=O)[O-])n1)NC1CC1,-27,130,·,2,i,0.93,102

# Compound activity as filed in PubChem BioAssay.
